# Assay outcomes as filed in PubChem.
# HCMV UL50-53 inh = inhibitors of HCMV UL50-UL53 nuclear egress complex interaction. HTRF UL50-UL53 interaction, normalized percent inhibition. inhibition, % (concentration not given with the values). hit rate 0.15% among 190,000. AID 1918969;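 active means both replicates at 50% or more, plus weaker picks with an unusually low signal ratio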;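 further: stock transfer was 100 nL into about 20 µL; 0% = negative control wells and 100% = wells with untagged competitor protein; inactives centre near -12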
# Sa growth 42C = S. aureus growth inhibition. relative growth, % (test concentration not listed). S. aureus RN4220 growth, OD600, 20 h, 42 °C; stronger effect = lower value. hit rate 0.53% among 170,000;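 active means growth at 42 °C up to 50% and 20 or more points under that at 30 °C, or under 10% at both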;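 further: 300 nL library stock went into each well; scaled to the means of positive and negative controls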
# GIV-Gai inh = GIV-Galpha-i interaction inhibition; P08753; Galpha-i3/FITC-GIV peptide fluorescence polarization, 90 min; stronger effect = lower value; scaled: aluminum fluoride 0%, vehicle 100%; percent of control (FP), % (no concentration beside the values); hit rate 0.42% among 210,000;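 active means replicate mean at 85% of control or lower, very high polarization wells dropped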;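 further: wells of about 15 µL received 100 nL stock; the first replicate is given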
# Target sequence (P08753 whole entry, looked up): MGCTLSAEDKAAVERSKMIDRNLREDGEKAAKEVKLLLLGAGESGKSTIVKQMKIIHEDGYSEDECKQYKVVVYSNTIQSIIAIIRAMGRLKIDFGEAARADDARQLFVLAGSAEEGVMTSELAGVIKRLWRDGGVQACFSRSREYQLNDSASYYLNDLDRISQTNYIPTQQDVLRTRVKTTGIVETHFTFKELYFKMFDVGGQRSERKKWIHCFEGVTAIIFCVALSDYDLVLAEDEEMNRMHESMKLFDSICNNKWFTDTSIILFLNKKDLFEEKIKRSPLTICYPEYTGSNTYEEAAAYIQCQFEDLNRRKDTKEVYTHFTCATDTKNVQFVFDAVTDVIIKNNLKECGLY
# Sa growth 42C second temp = also measured in Sa growth 42C; calls as there; relative growth, %; measured here: growth at 30 °C;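 optical density after 20 h as mean of two plates; 100% = untreated growth and lower means inhibition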
# * = called active by the depositor; / = no result given.
Structure,HCMV UL50-53 inh,Sa growth 42C,Sa growth 42C second temp,GIV-Gai inh
CC1=C(c2ccc(C)c(C)c2)S(=O)(=O)N=C1N1CCC(C(=O)NC(C)c2ccccc2)CC1 (stereo not given),/,84,86,100
O=C(C1CC1)N1CCc2cc(Br)cc(S(=O)(=O)N3CCCCC3)c21,-24,102,81,102
COc1ccc(C(=O)Nc2ccc(-c3nc4cc(C)cc(C)c4o3)cc2)cc1OC,/,112,89,121
O=C(CCc1[nH]c2ccccc2c1Sc1ccccc1)N(CCO)CCO,-6,102,78,/
Oc1c(CN2CCOCC2)cc(CN2CCOCC2)cc1CN1CCOCC1,6,91,118,92
O=C1C=C(Nc2ccccc2)CC(c2ccc(Cl)cc2)C1 (stereo not given),-17,91,78,106
COc1ccc(CNC(=O)C2C3CCC(O3)C2C(=O)O)cc1 (stereo not given),/,69,91,104
COc1ccccc1Nc1nn2c(=O)c3ccc(C(=O)NCCc4ccccc4)cc3nc2s1,/,120,86,101

# An excerpt from above in order of their number in GIV-Gai inh, rising.
SMILES	GIV-Gai inh
CC1=C(c2ccc(C)c(C)c2)S(=O)(=O)N=C1N1CCC(C(=O)NC(C)c2ccccc2)CC1 (stereo not given)	100
O=C(C1CC1)N1CCc2cc(Br)cc(S(=O)(=O)N3CCCCC3)c21	102
COc1ccc(CNC(=O)C2C3CCC(O3)C2C(=O)O)cc1 (stereo not given)	104

# More entries.
Structure,HCMV UL50-53 inh,Sa growth 42C,Sa growth 42C second temp,GIV-Gai inh
CN(CCOc1ccccc1)C(=O)NCc1ccccc1,4,89,94,/
CCOc1ccc(NC(=O)CSc2ncnc3c2oc2ccccc23)cc1,3,118,86,105
Cc1cccc(C2=NC(C(F)(F)F)(C(F)(F)F)c3c(n(C)c(=O)n(C)c3=O)N2)c1,/,101,57,104
COc1ccc(C(C(=O)OCCN(C)C)c2ccccc2)cc1 (stereo not given),/,113,93,96
Cc1nc2cccc[n+]2c(-c2ccccc2)c1C,-41,109,76,/
CCn1c(SC)nc2c([nH]c3ccccc32)c1=O,/,100,89,99
COC(=O)CSc1nnc(-c2ccccc2)n1Cc1ccc2c(c1)OCO2,-20,82,92,/
CCOC(=O)C1CCN(C(=S)c2ccccc2)CC1,-28,109,91,100

# (list continues)
Structure,HCMV UL50-53 inh,Sa growth 42C,Sa growth 42C second temp,GIV-Gai inh
CN(CCNC(=O)c1[nH]nc2c1CCc1ccccc1-2)C1CCCCC1,-1,/,/,104
C=CCNC1CC(=O)N(c2ccccc2)C1=O (stereo not given),-6,97,91,107
N#Cc1cccc(CSc2nnc(-c3ccccc3F)n2C2CC2)c1,-20,89,91,/
O=c1cc(-c2ccccc2)[nH]n1-c1nc2ccccc2s1,7,110,97,/
Cn1c2c(c(=O)n(C)c1=O)C(c1ccccc1C(F)(F)F)CC(=O)N2 (stereo not given),-5,97,81,111
O=C(C1CC1)N(c1ccccc1)C1C=CS(=O)(=O)C1 (stereo not given),-28,97,91,103
Cc1cccc(CSc2nc(=O)n(C3CCCC3)c3c2CCC3)c1,-11,/,/,105
COC(=O)c1c(C)[nH]c(C(=O)N2CCC(CC(=O)N3CCN(c4ccc(OC)cc4)CC3)CC2)c1C,-14,/,/,105

# Next section
Structure,HCMV UL50-53 inh,Sa growth 42C,Sa growth 42C second temp,GIV-Gai inh
Cc1ccc(CCNC(=O)CCS(=O)(=O)c2ccc3c(c2)oc(=O)n3C)cc1,/,88,79,105
Cc1cc2c(cc1Br)NC(=O)C21C(C#N)=C(N)Oc2n[nH]c(C)c21 (stereo not given),-24,72,62,100
O=C(COc1ccccc1)N1CCN(c2cccc(Cl)c2)CC1,4,95,97,102
CCOC(=O)c1c(C=O)oc2c(C)cc(OC(=O)c3ccc(C(=O)c4ccccc4)cc3)c(Br)c12,-15,/,/,104
CCn1c(C(=O)N2CCCC(C(=O)N3CCN(c4cc(C)ccc4C)CC3)C2)cc2sccc21 (stereo not given),-2,88,38,104
O=C(CNc1cccc(C(F)(F)F)c1)N=Nc1c(O)[nH]c2ccccc12,-28,100,96,/
CC(OC(=O)c1cc(=O)c2ccccc2[nH]1)C(=O)Nc1ccccc1F (stereo not given),-18,81,81,/
O=C(NC1CCCCC1)c1nc(Nc2ccc(F)cc2)c2ccccc2n1,-4,/,/,102

# (next part)
Structure,HCMV UL50-53 inh,Sa growth 42C,Sa growth 42C second temp,GIV-Gai inh
Cc1n[nH]c(C)c1S(=O)(=O)N(C)C,-8,89,94,/
Cc1ccc2[nH]c3nc4ccccc4nc3c2c1,-15,94,82,107
O=C(Nc1nnc(CCS(=O)(=O)c2ccc(Cl)cc2)s1)c1ccc(Br)cc1,-10,/,/,103
Cn1c(CCCCC(=O)O)nc2ccccc21,-16,109,83,104
Oc1ccc(C2N=C(c3ccccc3)NC(c3ccccc3)=N2)cc1,-2,117,104,100
O=C(c1cc(S(=O)(=O)N2CCCCC2)c[nH]1)N1CCCC1,/,117,86,104
O=C(NC1CCCC1)C(F)(F)C(F)(F)C(=O)NC1CCCC1,4,100,95,108
COc1ccc(-n2nc(C(=O)N3CCN(c4ccccc4OC)CC3)c3c4ccccc4n(C)c3c2=O)cc1,-5,100,85,104

# Next part
SMILES	HCMV UL50-53 inh	Sa growth 42C	Sa growth 42C second temp	GIV-Gai inh
O=C(Nn1c(-c2ccc(F)cc2)nc2ccccc2c1=O)c1cc2cc(Br)ccc2oc1=O	-10	/	/	126
COc1ccc(C2=NN(CN3C(=O)C(=O)c4ccccc43)C(c3cccc([N+](=O)[O-])c3)C2)cc1 (stereo not given)	-24	/	/	103
NC(=O)c1c(NC(=O)CN2C(=O)S/C(=C\c3ccc(Cl)cc3Cl)C2=O)sc2c1CCCC2	-15	/	/	109
O=S(=O)(c1ccsc1)c1cccs1	-7	89	78	97
CCCCCCNc1nc(Oc2ccccc2)nc(Oc2ccccc2)n1	-9	111	103	98
CCC(=O)NCc1cc(-c2nn(C)c(=O)c3ccccc23)ccc1C	0	92	92	101
CCc1ccc(NC(=O)c2cc(C)[nH]n2)cc1	/	78	85	109
COc1ccc(Nc2ncnc3ccc(C)cc23)cc1	-7	/	/	103
Cc1cccc(C(=O)Nc2cc3c(cc2S(=O)(=O)C2CCCCC2)n(C)c(=O)c(=O)n3C)c1	2	/	/	96
O=c1[nH]cnc2nc(N3CCc4ccccc4C3)sc12	-14	/	/	100
Cc1ccc(SCc2cc(=O)[nH]c(Nc3nc4ccccc4o3)n2)cc1	/	101	86	102
Cc1cc(OC(=O)N2CCOCC2)cc(C)c1Cl	-9	112	94	105
N=C(N=C(N)N)N1N=CCC1c1ccccc1 (stereo not given)	-8	98	88	/
O=C(O)c1cccc(S(=O)(=O)N2CCN(c3ccccc3)CC2)c1	-7	104	91	/
N#Cc1cccc(NC(=O)COC(=O)CCc2ccc(S(=O)(=O)N3CCOCC3)cc2)c1	-28	98	82	/

# Further compounds
SMILES	HCMV UL50-53 inh	Sa growth 42C	Sa growth 42C second temp	GIV-Gai inh
O=C1C2C3C=CC(CC3)C2C(=O)N1c1ccc(Cl)cc1[N+](=O)[O-] (stereo not given)	-19	/	/	106
CCNC(=O)c1ccc(CN2CCOCC2)cc1	/	100	74	102
Cc1ccc(CNC(=O)c2cc(C)nc3c2c(C)nn3-c2ccccc2)cc1	-27	/	/	100
CCCC(c1nnnn1CC1CCCO1)N(Cc1cccs1)Cc1cc2ccc(C)c(C)c2[nH]c1=O (stereo not given)	-22	132	91	103
O=C(CO/N=C/c1ccccc1Cl)N1CCCCCC1	-16	115	91	/
CCc1ccc(NC(=O)c2ccc(F)c(S(=O)(=O)NC3CCCCCC3)c2)cc1	/	111	91	105
Cc1cc(C)nc(NS(=O)(=O)c2ccc(NS(=O)(=O)c3ccccc3[N+](=O)[O-])cc2)n1	-28	/	/	102
Cc1ccc(S(=O)(=O)N2C=Cc3ccccc3C2c2c[nH]c3ccccc23)c(C)c1 (stereo not given)	/	97	88	104
O=C(COc1ccccc1)Nc1nnc(S(=O)(=O)N2CCCCCC2)s1	-11	107	85	98
N#Cc1nc(N)nc(N(c2ccccc2)c2ccccc2)n1	16	88	75	101
CC1=CC=CC(=C(C2C(=O)N(C)C(=O)N(C)C2=O)C2C(=O)N(C)C(=O)N(C)C2=O)C1=O	10	103	101	111
Cc1ccc(NC(=O)c2c(C)oc3ccc(O)c(CN4CCN(Cc5ccccc5)CC4)c23)cc1	-5	92	90	99
Cn1cccc1C(=O)c1cccc(Br)c1	-11	109	98	107
O=C1c2ccccc2-c2c1cccc2C(=O)N(CCO)CCO	-126	98	113	108
C(=Nc1cnc2ccc3ccccc3c2c1)c1ccco1	-21	79	88	/

# More compounds follow.
SMILES	HCMV UL50-53 inh	Sa growth 42C	Sa growth 42C second temp	GIV-Gai inh
Fc1ccc(C(NCCc2ccc(Cl)cc2)c2nnc(-c3ccccc3)o2)c(Cl)c1 (stereo not given)	13	107	99	103
O=C(Cn1c(=O)c2cccn2c2ccccc21)NCc1ccccc1	/	97	64	105
CC(CCc1ccco1)NC(=O)Cn1ncc2c(Cl)cccc21 (stereo not given)	-1	111	98	110
N#CCC1(C#N)CCCc2ccccc21 (stereo not given)	-3	104	98	98
O=C(CN1CCN(Cc2ccccc2Cl)S1(=O)=O)Nc1ccc(Cl)cc1	-11	/	/	101
CCN(CC)c1ccc(NC(=O)CN2CCN(S(=O)(=O)c3ccc(C(C)C)cc3)CC2)cc1	/	110	95	100
Cc1nnc(SCC(=O)NC(=O)c2cccn2C)n1Cc1ccccc1	-9	95	98	/
CCC(Oc1ccccc1)C(=O)Nc1ccc(OCc2cc(=O)n3ccc(C)cc3n2)cc1 (stereo not given)	/	71	89	99
CCOc1ccc(-c2nnc(Nc3ccc(OC)cc3)c3ccccc23)cc1	/	107	92	103
COc1cccc(CNS(=O)(=O)c2cc(OC)ccc2OC)c1	-1	110	89	/
CCc1c(C)sc2c1CCN(Cc1ccc(C#N)cc1)C2c1ccccc1 (stereo not given)	/	30	1	117
Cn1nc(-c2ccccc2)cc1NS(=O)(=O)c1ccc(C#N)cc1	-9	98	90	101
O=C(COc1ccccc1-c1nc(-c2ccccc2)no1)NC1CCCC1	48	/	/	105
CN(C)C1(CNCc2nc3ccccc3c(=O)[nH]2)CCCCC1	7	93	102	/
CCc1ccc(-n2c(=O)c3c(C)c(C(=O)N(C)C)sc3n(Cc3cccc(C)c3)c2=O)cc1	/	108	91	98

# Further entries.
SMILES	HCMV UL50-53 inh	Sa growth 42C	Sa growth 42C second temp	GIV-Gai inh
CC(C)Cn1c(=O)c2ccccc2n2c(CCC(=O)NCc3ccc(Cl)cc3)nnc12	-9	105	84	99
Cc1[nH]c2ccccc2c1SCC(=O)Nc1nccs1	-5	102	92	107
CC(=O)Nc1ccc(N/C(C)=C/C(=O)c2cccnc2)cc1	-65	96	94	105
Cc1nn(-c2ccccc2)nc1C(=O)N(C)CCc1ccccn1	-9	84	81	97
COc1ccc(C(=O)N/C(=C\c2cn(S(=O)(=O)N(C)C)c3ccccc23)C(=O)NCCCn2ccnc2)cc1	-13	114	87	107
Cc1ccc(-n2nc3c(N4CCC(C(=O)N5CCCCC5)CC4)nnc(C)c3c2C)cc1	/	90	87	116
Nc1cc(=O)n2c(n1)SCC2CS(=O)(=O)c1ccccc1 (stereo not given)	/	85	92	102
NC1=NC(=O)C(Cc2cccc(Cl)c2)S1 (stereo not given)	/	91	78	105
CCCCC(=O)NCc1ccccc1Cl	-10	105	94	108
COc1cc(-c2cc(C(=O)NN=C3CCN(C(C)=O)CC3)c3ccccc3n2)cc(OC)c1OC	-42	93	88	/
O=C(c1ccc2nc3sc4c(c3c(=O)n2c1)CCCC4)N1CCN(c2cccc(Cl)c2)CC1	-33	/	/	102
Cc1nnc(C)c2c(C)n(C(C)c3ccccc3)c(C)c12 (stereo not given)	-45	100	76	118
CC(=O)N1CCc2[nH]c3ccc(C)cc3c2C1	-19	84	73	/
O=C(O)Cc1cn2ccsc2n1	-29	112	88	/
CCOC(=O)c1cc(C(N)=O)c(SC)[nH]c1=O	-33	80	90	/

# Among those listed so far, 4 have a COOH group:
SMILES	HCMV UL50-53 inh	Sa growth 42C	Sa growth 42C second temp	GIV-Gai inh
COc1ccc(CNC(=O)C2C3CCC(O3)C2C(=O)O)cc1 (stereo not given)	/	69	91	104
Cn1c(CCCCC(=O)O)nc2ccccc21	-16	109	83	104
O=C(O)c1cccc(S(=O)(=O)N2CCN(c3ccccc3)CC2)c1	-7	104	91	/
O=C(O)Cc1cn2ccsc2n1	-29	112	88	/

# (continued)
SMILES	HCMV UL50-53 inh	Sa growth 42C	Sa growth 42C second temp	GIV-Gai inh
COc1ccc(OCC(O)CNC(=O)Nc2ccc(OC(F)(F)F)cc2)cc1 (stereo not given)	-7	95	95	104
CC(=O)N(CCC(c1ccc(C)cc1)c1ccco1)Cc1cccs1 (stereo not given)	-21	82	51	104
COc1cc(/C=N/NC(N)=S)ccc1OC(=O)c1ccco1	-38	89	89	/
COc1ccc2c(c1)CCc1c(C(=O)Nc3ccc(F)c(Cl)c3)noc1-2	-3	100	93	100
CCN(CC)Cc1c(NC(=O)c2ccc(OC)cc2)sc2c1CCCC2	-23	98	92	109
CCS(=O)(=O)Nc1ccc(C(=O)Nc2ccc3c(c2)OCCO3)cc1	3	100	78	104
CSC1=C(C#N)C(=O)NC(c2c(Cl)cccc2Cl)S1 (stereo not given)	-12	94	86	106
Cc1ccc(Sc2ccc(N)cn2)cc1	-17	95	93	102

# Not a hit list, and some 0.83% of all compounds hit somewhere here.
